Screening results: PubChem BioAssay, National Center for Advancing Translational Sciences (NCATS)
miR-21 FLuc = qHTS Assay for Modulators of miRNAs and/orActivators of miR-21; HeLa miR-21 FLuc reporter, luciferase, 48 h; Potency, µM (doses to about 38.3 µM), for inactives: at the highest dose reporter change, positive = more light; 340,000 tested, under 10 active; active = well fitted rising curve with a large enough effect; inconclusive = small, poorly fitted or top-dose-only effect; inactive = no such curve, though single readings can be large or run the other way;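 note: % of control where 0% means no effect; miR-21 action dims this reporter so a rising signal means less miR-21 action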
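HeLa cells endogenously expressing miR-21, stably carrying CMV-driven firefly luciferase with a downstream miR-21 binding site, 2000 cells/well. Titrations up to approximately 40 uM, 48 hours; luciferase luminescence read.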
Rango-impB inh = qHTS Assay for Inhibitors of Rango (Ran-regulated importin-beta cargo) - Importin beta complex formation; Rango CFP/YFP FRET sensor + importin beta, 45 min; 340,000 compounds, 0.031% hits; Importin subunit beta-1 (Homo sapiens), Q14974; Potency, µM (top dose mostly 92.2 µM), inactives show top-dose inhibition of complex formation; AID 540263, 2011; active = rising FRET ratio curve, often small or poorly fitted; inconclusive = mostly compound fluorescence or quenching in the first reads; inactive = flat curves in all reads;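 note: potency is the fitted concentration of half-maximal effect; 0% = DMSO wells and 100% = buffer wells lacking importin beta; nearly all actives have a fitted effect of over 15% in size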
Target sequence (Q14974 whole entry, looked up): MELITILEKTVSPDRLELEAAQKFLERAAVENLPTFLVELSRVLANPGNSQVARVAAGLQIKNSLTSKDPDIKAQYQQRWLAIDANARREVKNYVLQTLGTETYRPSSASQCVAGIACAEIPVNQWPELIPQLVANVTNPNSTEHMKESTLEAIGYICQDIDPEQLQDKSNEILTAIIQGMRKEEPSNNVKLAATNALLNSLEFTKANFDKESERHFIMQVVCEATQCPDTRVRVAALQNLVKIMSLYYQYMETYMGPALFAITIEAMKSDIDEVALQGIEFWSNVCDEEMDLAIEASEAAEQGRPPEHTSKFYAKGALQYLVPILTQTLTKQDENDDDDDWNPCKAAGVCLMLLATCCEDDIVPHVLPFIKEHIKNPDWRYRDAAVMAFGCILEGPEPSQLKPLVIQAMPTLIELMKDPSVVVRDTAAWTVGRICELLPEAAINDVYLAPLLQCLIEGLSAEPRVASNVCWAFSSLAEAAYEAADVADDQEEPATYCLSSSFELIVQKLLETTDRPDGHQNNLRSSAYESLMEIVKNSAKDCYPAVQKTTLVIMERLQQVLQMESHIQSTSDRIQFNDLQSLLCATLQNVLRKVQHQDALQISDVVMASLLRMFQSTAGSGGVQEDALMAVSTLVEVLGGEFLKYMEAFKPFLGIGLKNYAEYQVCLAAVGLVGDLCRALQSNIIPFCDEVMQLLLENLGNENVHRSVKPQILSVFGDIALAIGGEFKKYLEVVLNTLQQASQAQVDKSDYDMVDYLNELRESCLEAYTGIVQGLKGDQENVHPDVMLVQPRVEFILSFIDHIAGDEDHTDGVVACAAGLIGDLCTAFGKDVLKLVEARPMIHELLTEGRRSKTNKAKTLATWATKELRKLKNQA
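Inhibition scored from the CFP 486 nm/YFP 530 nm FRET ratio 45 min after adding 0.125 microM importin beta to 50 nM Rango biosensor preincubated 5 min with compound (room temperature, PBS with DTT, Tween-20, BSA). No-importin wells as positive control.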
GLA inh pH 4.5 = qHTS Assay for Inhibitors of Human alpha-Galactosidase at pH 4.5; 230,000 tested, under 10 active; AID 1467, 2008; Alpha-galactosidase A (Homo sapiens), P06280; activity change, negative = inhibition, % at 105 µM; purified enzyme, 4-MU-alpha-Gal fluorescence, pH 4.5; inconclusive = small, poorly fitted or top-dose-only inhibition, or a rising curve; inactive = flat fitted curve, though single readings scatter; no compound was filed as active;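 note: 0% = full activity with enzyme and -100% = basal without enzyme; dose as in the result columns while the protocol names 77 µM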
Rango release inh = qHTS Assay for Inhibitors of RanGTP induced Rango (Ran-regulated importin-beta cargo) - Importin beta complex dissociation; Biochemical FRET Rango-importin beta, RanGTP-induced dissociation; Potency, µM (doses to about 46.1 µM), for the others: top-dose activity change, negative = inhibition; 340,000 compounds, 0.071% hits; AID 540253, 2011; active means falling FRET ratio curve, often poorly fitted, with flat reads before Ran was added; inconclusive means other falling curves, or compound fluorescence or quenching; inactive means flat or rising ratio curve;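 note: potency is the fitted concentration of half-maximal effect; % of control where 0% means no effect; nearly all actives have a fitted effect of over 45% in size; -100% = wells without RanGTP and RCC1; the record marks most hits as doubtful in a second field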
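Rango/importin beta premix (0.1/0.25 uM final), PBS + 1 mM DTT + 0.02% Tween-20 + 0.1% BSA; cpd 5 min RT; FRET pre-read; + RanGTP-RCC1 (0.6 uM Ran, 2 mM GTP, 0.2 uM RCC1); 45 min RT; FRET post-read, ex 430, em 486/530 nm.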
Active calls of the source: *; ? = inconclusive; / = not tested or not shown; & = joins results of further samples. This is a subset; the hit share may differ from the screen's.

A first look:
miR-21 FLuc	Rango-impB inh	GLA inh pH 4.5	Rango release inh	structure
-24%	5.7%	7	7%	CNc1nc(Oc2ccc(C(=O)OC)cc2)nc(SC)n1
-5%	0.2%	-8	-14%	CCC1=NNC(=O)C(CC(=O)Nc2ccccc2)c2cc(OC)c(OC)cc21 (stereo unspecified)
/	-1.3%	/	3%	CC(CC(=O)N(C)CC(=O)Nc1ccc(N2CCOCC2)cc1)c1ccccc1 (stereo unspecified)
-6%	2.8%	/	-11%	O=C(CCNS(=O)(=O)c1ccccc1)N1CCN(c2ccccc2)CC1

Main list, repeating the preview:
miR-21 FLuc	Rango-impB inh	GLA inh pH 4.5	Rango release inh	structure
-24%	5.7%	7	7%	CNc1nc(Oc2ccc(C(=O)OC)cc2)nc(SC)n1
-5%	0.2%	-8	-14%	CCC1=NNC(=O)C(CC(=O)Nc2ccccc2)c2cc(OC)c(OC)cc21 (stereo unspecified)
/	-1.3%	/	3%	CC(CC(=O)N(C)CC(=O)Nc1ccc(N2CCOCC2)cc1)c1ccccc1 (stereo unspecified)
-6%	2.8%	/	-11%	O=C(CCNS(=O)(=O)c1ccccc1)N1CCN(c2ccccc2)CC1
/	2.5%	/	0%	CC(C)(C)OC(=O)N1CCCC(C(=O)Nc2cccc(C(=O)N3CCOCC3)c2)C1 (stereo unspecified)
-3%	0.1%	-2	10%	COc1cc(NC(=O)C2CCCCC2)c2ncccc2c1
/	-1.2%	/	-13%	COc1ccc(CCNC(=O)c2ccc(NC(=O)CC3SC(N4CCCC4)=NC3=O)cc2)cc1OC (stereo unspecified)
17%	-0.3%	/	?	COc1ccccc1NC(=O)N1CCc2[nH]c3ccc(Cl)cc3c2C1
-1%	-0.2%	2	-1%	Cc1cc(C)c(C(=O)Nc2ccccc2)c(CC(C)(C)C(=O)O)c1
/	2.4%	/	9%	C[C@H]1Oc2ccccc2C(=O)C1C(=O)c1ccccc1 (stereo partly specified)
/	-3.2%	/	-10%	CC(C)=CCC/C(C)=C/CNC(=O)C[C@H]1C[C@H](C(=O)N2CCCCC2)[C@@]2(CCc3ccccc3)c3[nH]c4ccc(Cl)cc4c3CCN2C1=O
13%	0.2%	6	-3%	COc1ccc(S(=O)(=O)N2CCC(C(=O)Nc3ccc(F)cc3)CC2)c2cccnc12
1%	2.5%	-2	0%	COc1ccc(Cc2c(O)nc(SCC(=O)N3CCOCC3)[nH]c2=O)cc1
-40%	?	/	-26%	NC(=O)COc1ccc2cc(-c3ccc(F)cc3)c(=O)oc2c1
/	-4.5%	/	-9%	COc1ccc(-c2nc(SCC(=O)N(CC(C)C)c3c(N)n(Cc4ccccc4)c(=O)[nH]c3=O)n[nH]2)cc1
-31%	-1.5%	-2	-21%	O=C(NNC(=O)c1ccccc1Cl)c1cccs1
-3%	1.2%	-1	-16%	Cc1ccc(CCNC(=O)C2CCC(CNc3c(N4CCC(C)CC4)c(=O)c3=O)CC2)cc1 (stereo unspecified)
8%	-3.5%	9	-22%	CCOC(=O)c1ccccc1NC(=S)N1CCC(C(N)=O)CC1
/	-0.3%	/	7%	O=C(CN1C(=O)NC2(CCCCC2)C1=O)NCCc1ccc(Cl)cc1Cl
1%	1.2%	/	-12%	O=C(Nc1ccccc1C(=O)N1CCCCCC1)c1cccc([N+](=O)[O-])c1

Part of the list above with just GLA inh pH 4.5 and Rango-impB inh.
smiles,GLA inh pH 4.5,Rango-impB inh
Cc1cc(C)c(C(=O)Nc2ccccc2)c(CC(C)(C)C(=O)O)c1,2,-0.2%
C[C@H]1Oc2ccccc2C(=O)C1C(=O)c1ccccc1 (stereo partly specified),/,2.4%

More records
miR-21 FLuc	Rango-impB inh	GLA inh pH 4.5	Rango release inh	structure
-48%	-3.7%	/	-4%	COc1ccc(OCc2cc(C(=O)N3CCCCCCC3)no2)c(Cl)c1
-2%&1%	6.9%	/	-11%	COc1ccc(CCNC(=O)CS(=O)Cc2nc(-c3ccc(C)cc3)oc2C)cc1OC (stereo unspecified)
1%	5.7%	/	-19%	COC(=O)C1CCC(=S)N1C(=O)c1ccccc1 (stereo unspecified)
/	7.0%	/	-1%	Cc1ccc(CNC(=O)C2CCN(c3nc(C)cc(C)n3)CC2)cc1
/	-2.2%	/	-8%	O=C(COC(=O)c1cccc([N+](=O)[O-])c1)Nc1ccc(Cl)cn1
-3%	-2.6%	9	11%	COC(c1ccccc1)c1nnc(CCC(=O)NCc2ccc3ncccc3c2)o1 (stereo unspecified)
/	-1.5%	/	-8%	CC(=O)N1CCN(C(=O)c2cccc(S(=O)(=O)N3CCN(c4ccc(F)cc4)CC3)c2)CC1
/	-1.3%	/	2%	CN(C(=O)CSc1ncnc2ccccc12)C1CCS(=O)(=O)C1 (stereo unspecified)
8%	0.2%	3	-2%	O=C(CC1SC(=Nc2ccccc2F)N(CCN2CCOCC2)C1=O)Nc1ccc(F)cc1F (stereo unspecified)
-7%	?	/	8%	C/C(CC(=O)Nc1cccc2c1CCCC2)=N\NC(=O)Cc1ccccc1
5%	-0.4%	6	0%	CC(=O)Nc1ccc(NC(=O)COC(=O)[C@@H](NC(=O)c2ccc(F)cc2)C(C)C)cc1
/	1.0%	/	-5%	Cc1cc(C)c(S(=O)(=O)N2CCCCC2CCNC(=O)C(=O)NCc2ccccn2)c(C)c1 (stereo unspecified)
2%	?	-6	0%	CC(=O)N1CCN(C(=S)c2ccc(N(C)C)cc2)CC1
-3%	-10%	-2	-4%	O=C(NC(C(=O)NCCN1CCOCC1)C12CC3CC(CC(C3)C1)C2)C1CCCCC1 (stereo unspecified)
-9%	5.7%	-24	2%	Cc1ccc(-c2csc3nnc(SCC(=O)Nc4nsc(-c5ccccc5)n4)n23)cc1
-16%	?	2	2%	COc1ccc(S(=O)(=O)Nc2ccc3c(c2)OCO3)cc1OC
-4%	1.7%	/	9%	Cc1ccc2c(cnn2C(=O)CCC(=O)NC2CCCCC2)c1
0%	-3.3%	-15	-9%	COc1ccccc1-c1nc(-c2ccccc2)nc(N2CCN(C)CC2)c1C#N
-8%	1.7%	-14	-17%	COc1cc(NC(=O)c2ccccc2)c(OC)cc1NC(=O)CN1CCCCC1
-44%	4.7%	-10	6%	C/C(=N/NC(=O)c1ccc(Br)o1)c1cccc(NC(=O)c2ccc(C)o2)c1
0%	0.8%	7	0%	Cc1c(Br)c([N+](=O)[O-])nn1CC(=O)NCC1CCCO1 (stereo unspecified)
11%	0.7%	-6	-2%	O=C(O)CC1(CC(=O)Nc2cc(C(F)(F)F)cc(C(F)(F)F)c2)CCCCC1
0%	-0.4%	3	5%	Cc1cc(C)nc(NC(=O)CN2C(=O)c3ccccc3C2=O)n1
-20%	?	-10	-16%	Cc1nc(-c2ccc(NC(=O)/C=C\C(=O)O)cc2)cs1
-2%	?	1	-27%	COc1cc(/C=N/n2c(-c3ccc4c(c3)NC(=O)CO4)csc2=Nc2cccc(C)c2)ccc1O
10%	-2.7%	-7	9%	O=C(CSc1ncc(C(F)(F)F)cc1Cl)N1CCN(S(=O)(=O)c2ccc3ccccc3c2)CC1
-5%	-0.3%	/	0%	COc1ccc(C(=O)Nc2ccnn2C2CCN(Cc3ccc4nonc4c3)CC2)cc1
-3%	-0.3%	2	-1%	Clc1cccc(Cl)c1CSc1cc2c(nn1)-c1ccccc1CC2
-7%	0.1%	-12	16%	CCn1ccc(C(=O)Nc2c(C)nn(Cc3c(F)c(F)c(F)c(F)c3F)c2C)n1
-5%	3.9%	/	18%	O=C(NC(C1CC1)C1CC1)C1CCC(=O)N(CCCN2CCCC2=O)C1 (stereo unspecified)
-2%	1.1%	10	-19%	Cc1ccc(NS(=O)(=O)c2ccc(Br)cc2)nc1
2%	-4.0%	/	1%	CCOC(=O)N1CCN(C(=O)COC(=O)Cc2ccc(OC)cc2)CC1
0%	0.1%	/	0%	O=C(N1CCOCC1)C1(S(=O)(=O)c2ccccc2)CC=CC1
-4%	-1.4%	-2	9%	CN1C(=O)c2ccccc2C(C(=O)NCCCN2CCCC2)C1c1c[nH]c2ccccc12 (stereo unspecified)
-5%	6.2%	/	2%	CCN(c1ccc(NC(=O)c2cccc(S(=O)(=O)N3CCN(C)CC3)c2)cc1)C(C)C
1%	1.9%	3	-8%	Cc1ccc(NC(=S)N(CCN(C)C)Cc2cccs2)cc1
-5%	-0.9%	/	2%	COc1ccc(CCNC(=S)N2CCN(S(=O)(=O)c3ccc(Cl)cc3)CC2)cc1
-10%	2.7%	-2	35%	C#CC(C)(C)NC(=O)c1ccccc1OC
/	-1.2%	/	1%	CC(=O)NS(=O)(=O)c1ccc(NC(=O)c2cccc(OCc3c(C)noc3C)c2)cc1
-9%	10%	4	1%	COc1ccc(S(=O)(=O)N(C)CC(=O)NC2CCCC2)cc1Cl

As entered above:
miR-21 FLuc, COc1ccc(S(=O)(=O)Nc2ccc3c(c2)OCO3)cc1OC : -16%
miR-21 FLuc, O=C(CC1SC(=Nc2ccccc2F)N(CCN2CCOCC2)C1=O)Nc1ccc(F)cc1F (stereo unspecified) : 8%

Pulled one by one from the entries so far:
miR-21 FLuc	Rango-impB inh	GLA inh pH 4.5	Rango release inh	structure
/	-1.2%	/	-13%	COc1ccc(CCNC(=O)c2ccc(NC(=O)CC3SC(N4CCCC4)=NC3=O)cc2)cc1OC (stereo unspecified)
10%	-2.7%	-7	9%	O=C(CSc1ncc(C(F)(F)F)cc1Cl)N1CCN(S(=O)(=O)c2ccc3ccccc3c2)CC1

Later entries.
miR-21 FLuc	Rango-impB inh	GLA inh pH 4.5	Rango release inh	structure
-4%	?	-10	?	CN1CCCc2cc3c(C(F)(F)F)cc(=O)oc3nc21
2%	-1.8%	-2	-3%	COc1ccccc1C1OC(c2cccc([N+](=O)[O-])c2)=NN1C(C)=O (stereo unspecified)
-1%	-6.6%	-2	6%	O=C(Cc1cccc2ccccc12)N/N=C/c1ccncc1
-26%	29%	-5	14%	CN(C)c1ccc(N=C/C=C2/N(C)c3ccccc3C2(C)C)cc1
-3%	4.0%	4	14%	Cc1ccc(OCC(=O)Nc2cc(-c3nn4c(C)nnc4s3)ccc2C)cc1
-2%	-1.0%	4	-7%	CC(NC(=O)NC1CCCCC1)C(c1cccs1)N1CCN(Cc2ccccc2)CC1 (stereo unspecified)
/	-3.3%	/	-9%	O=C(COC(=O)c1ccc(Br)c(S(=O)(=O)N2CCOCC2)c1)NCCc1ccccc1
/	-1.6%	/	7%	CC1CCCC(C)N1C(=O)COC(=O)C1CCN(S(=O)(=O)c2ccc3c(c2)OCCO3)CC1 (stereo unspecified)
-7%	-2.3%	2	-17%	COc1cc(CN2CCC(CO)(CCOc3ccccc3)CC2)cc(OC)c1OC
-4%&1%	-0.4%&3.9%	-5	27%&-3%	OC(COc1cccc(OCC(O)CN2CCOCC2)c1)CN1CCOCC1 (stereo unspecified)
/	?	/	?	CCOC(=O)c1c(-c2ccccc2)csc1NC(=O)/C(C#N)=C\c1ccc(O)c(OC)c1
/	-0.3%	/	0%	COc1ccc(Cl)cc1-c1nc(SCC(=O)NC2CCCC2)n[nH]1
-6%	5.5%	-8	-2%	C1CC1Cc1noc(CN2CCN(CC3CC3)CC2)n1
-4%	5.1%	-1	4%	COc1ccnc(Oc2ccccc2)n1
6%	-0.4%	/	5%	COc1cc(C(=S)N2CCOCC2)cc(OC)c1OC(=O)c1ccc([N+](=O)[O-])cc1[N+](=O)[O-]
/	0.2%	/	17%	O=C(C1CC(=O)N(c2ccc3c(c2)OCCO3)C1)N1CCN(S(=O)(=O)c2cccc(F)c2)CC1 (stereo unspecified)
-5%	-1.1%	-3	0%	Cc1cc(NC(=O)CSc2ccc3ccccc3c2)no1
-2%	-0.2%	5	32%	O=C(Nc1ccc(S(=O)(=O)Nc2ncccn2)cc1)c1ccc(F)c(S(=O)(=O)N2CCOCC2)c1
7%	0.0%	/	-12%	CCOCCn1c(CN(C)Cc2ccccc2)nc2c1c(=O)n(C)c(=O)n2C
